VDR inh: inhibitors of human vitamin D receptor; P11473; VDR-SRC2-3 peptide fluorescence polarization, 2 h; Potency, µM, without a hit: max response, negative = inhibition, usual class: inhibitors; 400,000 tested, 0.93% active; AID 504847; active means well fitted inhibition curve with a large enough effect; inconclusive means small, poorly fitted or top-dose-only effect, or another doubt; inactive means no such curve, though single readings can be large or run the other way; further: series mostly up to about 120 µM
Target sequence (P11473 whole entry, looked up): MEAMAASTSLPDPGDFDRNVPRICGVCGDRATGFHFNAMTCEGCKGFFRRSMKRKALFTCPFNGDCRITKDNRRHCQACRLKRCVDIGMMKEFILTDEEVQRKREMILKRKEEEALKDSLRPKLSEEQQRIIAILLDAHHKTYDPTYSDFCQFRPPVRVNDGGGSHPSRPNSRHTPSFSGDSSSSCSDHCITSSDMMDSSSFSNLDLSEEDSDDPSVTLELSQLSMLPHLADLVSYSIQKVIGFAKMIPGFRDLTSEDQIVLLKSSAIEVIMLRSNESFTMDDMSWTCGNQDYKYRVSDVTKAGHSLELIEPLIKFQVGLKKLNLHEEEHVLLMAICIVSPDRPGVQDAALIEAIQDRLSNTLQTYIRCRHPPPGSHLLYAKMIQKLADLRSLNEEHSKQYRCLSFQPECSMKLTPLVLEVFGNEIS
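FP read-out; VDR + SRC2-3 coactivator peptide; 23 nl compound by pintool; 2 h RT incubation; reagents held at 4 deg C, protected from light.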
An asterisk follows results filed as active; ? = inconclusive; & = joins results of further samples. On the % scale 0 is the no-effect control and ±100 the full control effect; potency means the concentration at half of the fitted maximal effect. The list is partial; rates above refer to the full screens.

CN(C(=O)CSc1nc(C2CC2)nc2ccccc12)c1nc(-c2ccccc2)cs1
- VDR inh: -11%
CCc1ccc(NC(=S)N2CCC(NC(=O)c3ccccc3)CC2)cc1
- VDR inh: 9%
O=C(CSc1ccccc1Cl)NC1CCCc2ccccc21 (stereo unspecified)
- VDR inh: -3%
CC(=O)N1c2c(cc(Br)cc2S(=O)(=O)Nc2ccc(OC(F)(F)F)cc2)CC1C (stereo unspecified)
- VDR inh: -1%
COc1cccc(/C=N/NC(=O)CC(=O)NCCc2ccc(OC)c(OC)c2)c1
- VDR inh: -14%
COc1cccc(NS(=O)(=O)c2ccc3c(c2)CCCN3C(C)=O)c1
- VDR inh: -1%
CCOc1cc(C(=O)N2CCC(c3ccncc3)CC2)cc(OCC)c1OCC
- VDR inh: 16%
CCN(CC)CCNC(=O)C1(O)c2cc(Br)ccc2NC(=O)N1c1cccc(OC)c1 (stereo unspecified)
- VDR inh: 7%
Cc1ccc(NC(=O)C2CCCN2S(=O)(=O)c2ccc3c(c2)CCC(=O)N3)cc1Cl (stereo unspecified)
- VDR inh: -8%
COc1ccc(OCCSc2nnc(-c3cccnc3)n2N)cc1
- VDR inh: 14%
COc1cccc(NC(=O)Nc2ccc3c(c2)N(C)C(=O)CS3)c1
- VDR inh: -3%
COc1ccc(CN2CCCN(CC(=O)Nc3ccc(Br)cc3F)S2(=O)=O)cc1
- VDR inh: 15%
CC(=O)c1c(C)n(C)c2ccc(O)cc12
- VDR inh: 4%
CCn1nc(C(=O)NCc2nnc3ccccn23)c2ccccc2c1=O
- VDR inh: 10%
C=C1O[C@@](CO)(n2cnc3c(N)ncnc32)[C@H](O)[C@@H]1O
- VDR inh: 3%&10%

5 of the compounds above, as tab-separated lines.
canonical_smiles	VDR inh
CC(=O)N1c2c(cc(Br)cc2S(=O)(=O)Nc2ccc(OC(F)(F)F)cc2)CC1C (stereo unspecified)	-1%
COc1cccc(/C=N/NC(=O)CC(=O)NCCc2ccc(OC)c(OC)c2)c1	-14%
COc1cccc(NS(=O)(=O)c2ccc3c(c2)CCCN3C(C)=O)c1	-1%
CCOc1cc(C(=O)N2CCC(c3ccncc3)CC2)cc(OCC)c1OCC	16%
CCN(CC)CCNC(=O)C1(O)c2cc(Br)ccc2NC(=O)N1c1cccc(OC)c1 (stereo unspecified)	7%

Other records follow:
N#CCC1c2ccccc2CCN1C(=O)Nc1cccc(Cl)c1 (stereo unspecified)
- VDR inh: -7%
CCOC(=O)C1=C(N)Oc2c(oc(CO)cc2=O)C1c1ccc(Cl)cc1 (stereo unspecified)
- VDR inh: -6%
COc1ccc(/C=N/NC(=O)c2nnn(-c3nonc3N)c2-c2cccs2)cc1OC
- VDR inh: 2%
COc1cccc(/C=N/n2nnc3c(cnn3-c3ccccc3)c2=O)c1
- VDR inh: 4%
Cc1[nH]nc2c1C(c1ccoc1)C(C#N)=C(N)O2 (stereo unspecified)
- VDR inh: -15%
Cc1ccc(-c2nnn(CC(=O)Nc3ccccc3N3CCOCC3)n2)cc1
- VDR inh: 20%
COc1cc(N=Nc2ccc3ccccc3c2)ccc1O
- VDR inh: 0%
CN(C)CCN(C(=O)C1CCN(S(=O)(=O)c2cccs2)CC1)c1nc2ccccc2s1
- VDR inh: -27%
Cn1c(N/N=C/c2cccs2)cc(=O)n(C)c1=O
- VDR inh: 9%
O=C(NCCN1CCOCC1)c1ccc(S(=O)(=O)Nc2ccccc2)cc1
- VDR inh: -7%
CC(=O)c1ccc(NC(=O)CN2CCN(c3ncccn3)CC2)cc1
- VDR inh: 9%
CCN1C(=O)C2C(C1=O)N1C(c3cccs3)C3C(=O)N(CC)C(=O)C3N1C2c1cccs1 (stereo unspecified)
- VDR inh: 8%
CS(=O)(=O)N1CCc2cc(C(=O)N3CCN(c4ccc(F)cc4)CC3)ccc21
- VDR inh: 9%&17%
O=C(NC1CCCN(Cc2ccc(Cl)cc2)C1)c1c(F)ccc(F)c1F (stereo unspecified)
- VDR inh: 7%
CC1Nc2ccccc2C(=O)N1NS(C)(=O)=O (stereo unspecified)
- VDR inh: 1%

CCN1CCN(C(=O)CCc2nc3ccccc3n2-c2ccccc2)CC1
- VDR inh: -17%
O=C(NC1CCN(Cc2ccccc2)CC1)c1ccccc1
- VDR inh: -6%
CC(=O)c1ccc(NC(=O)c2cn3c4c(ccc(Cl)c4c2=O)OC(C)C3)cc1 (stereo unspecified)
- VDR inh: 11%
CC(C)n1nccc1N(Cc1ccc(C#N)cc1)S(=O)(=O)c1ccccc1
- VDR inh: 2%
O=S(=O)(c1ccc2nc(Nc3ccc(Br)cc3F)ccc2c1)N1CCCC1
- VDR inh: 19%
Cc1cccc(NC(=O)CSc2ccc3nnc(-c4cccnc4)n3n2)c1
- VDR inh: 10%
Nc1nonc1-n1nnc(C(=O)N/N=C/c2cc(Br)ccc2O)c1CNc1ccccc1
- VDR inh: 4%
COc1ccc(-c2nn(-c3ccccc3)cc2CO)cc1
- VDR inh: 8%
O=C(O)c1cc([N+](=O)[O-])ccc1NCc1ccccn1
- VDR inh: -22%
O=C(CCSc1ccccc1)NNC(=O)c1ccccc1F
- VDR inh: -8%
CN1CC(=O)N(CC(=O)N2CCC(Cc3ccccc3)CC2)C1=O
- VDR inh: -6%
CC(C)(C)C1COc2ccccc2N1C(=O)c1ccccc1Cl (stereo unspecified)
- VDR inh: 9%
COc1ccc(CCNC(=O)c2cc(=O)c3cc(C)ccc3o2)cc1OC
- VDR inh: -7%
Cc1cccc(-c2nc(C)cc(=O)[nH]2)c1
- VDR inh: 4%
Cc1cc(SCC(=O)N2CCN(C(=O)c3ccco3)CC2)c(C)cc1Br
- VDR inh: -8%

COc1ccc(Nc2ccc(Cl)nn2)cc1
- VDR inh: -5%
CCC(=O)Nc1cccc(SC)c1
- VDR inh: -16%
COc1ccccc1-c1cc(C(=O)N/N=C/C=C/c2ccccc2[N+](=O)[O-])c2ccccc2n1
- VDR inh: -11%
CCCC1=NN(C(=O)Cc2ccc([N+](=O)[O-])cc2)C(O)(C(F)(F)F)C1 (stereo unspecified)
- VDR inh: 3%
COc1cccc(NC(=O)CN2C(=O)CSc3ccc(S(=O)(=O)N4CCCCC4)cc32)c1
- VDR inh: 5%
CC(C)Cc1oc(C(=O)O)cc1CN
- VDR inh: -7%
CN=C1SC(CC(=O)Nc2ccccc2F)C(=O)N1C (stereo unspecified)
- VDR inh: -18%
CC(C)CNc1nc(NC(C)(C)C)nc(Oc2ccc(=O)[nH]n2)n1
- VDR inh: -5%
CCOC(=O)C1CCCN(C(=O)c2cc(COc3ccc(C)nc3)on2)C1 (stereo unspecified)
- VDR inh: 5%
COc1ccc(-n2nc(C(=O)NCC(=O)N3CCC(C(N)=O)CC3)c3ccccc3c2=O)cc1
- VDR inh: -6%
Cc1ccc2occ(-c3cc(-c4ccc(F)cc4)nc4c3COc3ccc(F)cc3-4)c(=O)c2c1
- VDR inh: -5%
O=C(Cn1c(=O)oc2ccccc21)Nc1ccc(C(=O)O)cc1
- VDR inh: 0%
CCN1C[C@@H]2[C@@H]3C(=O)N(C)C(=O)[C@@H]3[C@](CC)(C(=O)OC)N2C1=NCc1ccccc1
- VDR inh: -2%
COCCn1c(C)cc(C(=O)CSc2nc3ccccc3o2)c1C
- VDR inh: 2%
CCOCCc1nn2c(=O)cc(COC(=O)c3ccc(NC(=O)C(C)(C)C)cc3)nc2s1
- VDR inh: -7%

Four compounds drawn at random from the list so far:
COc1ccc(/C=N/NC(=O)c2nnn(-c3nonc3N)c2-c2cccs2)cc1OC
- VDR inh: 2%
Cc1cccc(NC(=O)CSc2ccc3nnc(-c4cccnc4)n3n2)c1
- VDR inh: 10%
CCCC1=NN(C(=O)Cc2ccc([N+](=O)[O-])cc2)C(O)(C(F)(F)F)C1 (stereo unspecified)
- VDR inh: 3%
CCOc1cc(C(=O)N2CCC(c3ccncc3)CC2)cc(OCC)c1OCC
- VDR inh: 16%

(continued)
Cc1ccc(C)c(CN2CCCN(Cc3ccccc3C)S2(=O)=O)c1
- VDR inh: 0%
COCCCNC(=O)/C=C/c1ccc(Cl)cc1Cl
- VDR inh: -14%
CCCN(CCO)CCCc1ccccc1
- VDR inh: 25%
CC(C)OC(=O)Nc1ccc(-c2ccc(NC(=O)OC(C)C)cc2Cl)c(Cl)c1
- VDR inh: ?
O=C(CSc1ccc2nnc(-c3ccccn3)n2n1)Nc1ccc2c(c1)OCCO2
- VDR inh: -6%
Cc1cc(/C=C2/NC(=O)NC2=O)c(C)n1-c1ccncc1
- VDR inh: -4%
COc1ccc(C(=O)NCCSc2ccccc2)cc1OC
- VDR inh: 35µM*
CCc1ccc(NS(=O)(=O)c2ccc3[nH]c4c(c3c2)CCCCCC4)cc1
- VDR inh: -3%
COc1ccc(NC(=O)Cn2c(=O)sc3ccccc32)cc1
- VDR inh: 19%
CC1CN=C(c2ccccc2)O1 (stereo unspecified)
- VDR inh: 12%
O=C(Cn1cnc2c(OCc3ccccc3)ncnc21)NCc1ccc2[nH]ccc2c1
- VDR inh: 14%
CCN(C(=O)COC(=O)c1ccc(OC)c(S(=O)(=O)N2CCCc3ccccc32)c1)C1CCS(=O)(=O)C1 (stereo unspecified)
- VDR inh: -8%
COc1ccc(CCNC(=O)CSc2nc(O)c(C(C)C)c(=O)[nH]2)cc1OC
- VDR inh: 6%
COc1ccc(-c2cc(C)no2)cc1S(=O)(=O)NCCCN1CCCCCC1
- VDR inh: 2%
O=S(=O)(Oc1ccc(C(=S)N2CCOCC2)cc1)c1ccc(Cl)cc1
- VDR inh: -18%

Cc1cccc(N2CCN(C(=O)c3ccc4c(c3)N(Cc3cccc(Cl)c3)C(=O)c3ccccc3S4=O)CC2)c1C (stereo unspecified)
- VDR inh: 7%
CCC(=O)Nc1ccc(S(=O)(=O)Nc2cccc(C)c2)cc1OC
- VDR inh: -12%
Cc1ccc(Cl)c2c1N[C@@H](c1ccc(C(=O)O)cc1)[C@H]1CC=C[C@@H]21
- VDR inh: -30%
Cc1ccoc1C(=O)N1CCCCC1C(=O)O (stereo unspecified)
- VDR inh: ?
COc1ccc(OC)c(-n2c(=S)[nH]c3c(sc(=S)n3-c3ccccc3)c2=O)c1
- VDR inh: 32%
COc1cc2c(cc1OC)C(COc1ccc(F)cc1)N(C(=O)c1ccco1)CC2 (stereo unspecified)
- VDR inh: 12%
O=C(Nc1ccccc1)N1CCN(Cc2ccc3c(c2)OCO3)CC1
- VDR inh: ?
O=C1OCCN1C(=O)[C@H]1[C@H](c2ccc(Cl)cc2)C(c2ccc(F)cc2)=NN1c1ccc(Br)cc1
- VDR inh: 16%&-2%
CCc1nc2nc(C)c(NS(=O)(=O)c3ccc(C)c(C)c3)c(=O)n2[nH]1
- VDR inh: -15%
CC(Oc1ncnc2ccccc12)C(=O)Nc1cccc(S(=O)(=O)N2CCOCC2)c1 (stereo unspecified)
- VDR inh: -5%
Cc1cccc(Cn2nnc3ccccc32)c1O
- VDR inh: -21%
O=C(COC(=O)c1ccc(N2CCCC2=O)cc1)c1ccccc1
- VDR inh: -3%
C=CCSc1nc2sc3c(c2c(=O)[nH]1)CC(C)(CC)OC3 (stereo unspecified)
- VDR inh: 0%
CCC(C(=O)Nc1ccsc1C(=O)OC)c1ccccc1 (stereo unspecified)
- VDR inh: 18%
COc1ccccc1N1CCN(CC(=O)c2c(C)[nH]c3ccccc23)CC1
- VDR inh: 4%

O=S(=O)(NCCN1CCOCC1)c1ccc(Cl)c(Cl)c1
- VDR inh: -8%
COc1ccc2c(c1)c1c(c(=O)n(Cc3ccccc3)c(=O)n1CC(=O)NCc1ccc(C)cc1)n2C
- VDR inh: -5%
CC(=O)N1CCC2(CC1)CCN(c1ncccn1)CC2
- VDR inh: 9%
COc1cc(CN2CCN(Cc3c[nH]c4ccccc34)CC2CCO)cc(OC)c1 (stereo unspecified)
- VDR inh: -9%
CCOc1ccc(NC(=O)Cn2cc(C(=O)c3ccccc3)c(=O)c3cc4c(cc32)OCCO4)cc1
- VDR inh: -3%
CC1CCN(S(=O)(=O)c2ccc3c(c2)N(C)C(=O)CC(=O)N3C)CC1
- VDR inh: 4%
CC1CCCCN1C(=O)Cn1c(=O)oc2cc(S(=O)(=O)N3CCCCC3)ccc21 (stereo unspecified)
- VDR inh: -1%
Cc1cc(C)n(C(C)CC(=O)Nc2cccc(C(F)(F)F)c2)n1 (stereo unspecified)
- VDR inh: 0%
Cc1cc(OC(C)C(=O)N2CCN(c3ccc(F)cc3)CC2)c2c(C)cc(=O)oc2c1 (stereo unspecified)
- VDR inh: -19%
CCn1c2ccccc2c2cc(NC(=O)CSc3nnc(-c4ccc(OC)c(OC)c4)n3N)ccc21
- VDR inh: 4%
C#CCOCCOCCOCCNc1nc(N2CCN(C(=O)[C@H]([C@@H](C)O)n3cc(CCCCN)nn3)CC2)nc(N2CCN(C(=O)[C@H]([C@@H](C)CC)n3cc(CCCN=C(N)N)nn3)CC2)n1
- VDR inh: -9%
CC1(C)C(=O)OC(c2cccs2)C(C)(C)C1=O (stereo unspecified)
- VDR inh: 15%
CCOC(=O)C1(C)C=C(Nc2cccc(C)c2)C(=O)N1c1ccccc1 (stereo unspecified)
- VDR inh: -18%
CC(CCc1ccccc1)NC(=O)CCNS(=O)(=O)c1ccccc1C(F)(F)F (stereo unspecified)
- VDR inh: -2%
O=C(Cc1cccc(Cl)c1)Nc1ccc(Br)cc1
- VDR inh: -18%

CCOC(=O)CN1CC23C=CC(O2)C(C(=O)NCc2cccs2)C3C1=O (stereo unspecified)
- VDR inh: 14%
Cc1cccc(NC(=O)c2ccccc2NC(=O)Cc2ccccc2)c1C
- VDR inh: 9%
CC(=O)CCC1C2C(O)C(C(C)C)C(OC(=O)/C=C/c3ccccc3)CC12C (stereo unspecified)
- VDR inh: 4%
CC1(C)CC(OC(=O)c2ccco2)CC(C)(C)N1O
- VDR inh: 0%
Cc1ccc(C(=O)N(CCN2CCCCC2)CC2CCCN(C3CCCC3)C2)s1 (stereo unspecified)
- VDR inh: -17%
C[C@H](NC(=O)c1nc[nH]c1C(=O)NCC(=O)OCc1ccccc1)C(=O)OCc1ccccc1
- VDR inh: -9%
CCOC(=O)N/N=C/c1c(F)c(F)c(F)c(F)c1F
- VDR inh: 1%
Nc1ncnc2c1ncn2[C@@H]1O[C@H](CNS(=O)(=O)c2ccc(-c3ccno3)s2)[C@@H](O)[C@H]1O
- VDR inh: -24%

Assay outcomes deposited in PubChem BioAssay by National Center for Advancing Translational Sciences (NCATS).
